UCH37 DUB inh – inhibitors of human deubiquitinating enzyme UCH37 | purified proteasome/UCH37, Ub-AMC cleavage fluorescence | Q9Y5K5 | 330,000 compounds, 0.33% hits | AID 588478 | inhibition, % (no concentration beside the values);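 active = mean of two replicates above 20%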;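 note: 0% = compound-free wells with enzyme and 100% = wells lacking proteasome; stock transfer was 100 nL into about 20 µL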
Target sequence (Q9Y5K5 whole entry, looked up): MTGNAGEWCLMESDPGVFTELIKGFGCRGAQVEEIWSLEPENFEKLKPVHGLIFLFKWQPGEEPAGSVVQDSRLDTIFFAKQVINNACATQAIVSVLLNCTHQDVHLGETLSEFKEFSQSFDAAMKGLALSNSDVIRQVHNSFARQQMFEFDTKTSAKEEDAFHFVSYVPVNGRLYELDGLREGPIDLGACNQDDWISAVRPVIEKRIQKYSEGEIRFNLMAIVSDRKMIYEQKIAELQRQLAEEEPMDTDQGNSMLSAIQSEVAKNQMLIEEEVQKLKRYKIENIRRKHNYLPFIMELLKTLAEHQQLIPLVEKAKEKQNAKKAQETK
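Material: Human UCH37 enzyme supplied as purified proteasome complex | Schedule: 30 min compound-proteasome preincubation then 25 min substrate reaction, room temperature | Detection: AMC fluorescence from Ub-AMC cleavage, excitation 355 nm, emission 460 nm | Benchmarks: Wells without proteasome as full block, compound-free enzyme plus substrate as uninhibited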
Vif TR-FRET – inhibitors of Vif binding to APOBEC3G peptide, primary screen, biochemical, TR-FRET, GST-Vif 1-94, biotin-A3G peptide, dose response retest (AID 1117319) | 260,000 compounds, 0.57% hits | TR-FRET GST-Vif / biotin-A3G peptide binding; higher % means a stronger effect; test concentration not given here; strong numbers were not always called active | one-dose inhibition, %; IC50 in µM for titrated hits;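 active = above the screen mean plus three standard deviations and confirmed in dose response; inconclusive = results disagree or hit not tested in dose response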;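 note: Vif residues 1-94 fused to GST binding biotinylated APOBEC3G peptide 110-148; 0% = full assay without inhibitor and 100% = GST in place of GST-Vif; retest series ran down from 100 µM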
HNF4A DNA FP – change in binding of human HNF4 alpha to DNA; P41235; HNF4a-FITC DNA binding, fluorescence polarization, 1 h; activity change, % at 10 µM; 360,000 compounds, 0.3% hits; AID 1224865; in the data active = activity change above about 30%, passing the limit was not always enough;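 note: controls were the assay level and a saturating level of protein; the project sought stronger binding though the title names inhibitors; some compounds called inactive have numbers as strong as hits; positive values seem to mean higher polarization but the record does not say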
Target sequence (P41235 whole entry, looked up): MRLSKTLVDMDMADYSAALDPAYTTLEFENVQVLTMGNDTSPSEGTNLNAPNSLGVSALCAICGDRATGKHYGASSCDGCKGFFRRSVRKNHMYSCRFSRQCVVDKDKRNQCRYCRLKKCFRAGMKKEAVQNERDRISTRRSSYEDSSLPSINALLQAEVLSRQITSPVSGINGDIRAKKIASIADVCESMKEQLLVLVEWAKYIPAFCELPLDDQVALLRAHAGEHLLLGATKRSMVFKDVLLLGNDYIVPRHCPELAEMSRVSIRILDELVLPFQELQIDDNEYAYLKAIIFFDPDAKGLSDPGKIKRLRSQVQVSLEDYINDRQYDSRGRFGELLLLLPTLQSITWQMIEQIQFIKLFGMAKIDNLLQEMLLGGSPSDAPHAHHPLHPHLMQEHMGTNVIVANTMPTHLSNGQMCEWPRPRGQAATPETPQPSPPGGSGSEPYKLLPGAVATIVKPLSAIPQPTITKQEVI
Beta2AR agonist – agonists of human beta-2 adrenergic receptor inducing internalization; P07550; Am2.2-beta2AR cells, FAP receptor internalization, flow cytometry; reference of the scale not given here; response, % (test concentration not listed); 340,000 compounds, 0.43% hits;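 active = response above a set limit, near 3 SD of response in nonfluorescent compounds, cut at about 42% in these data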;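 note: stock transfer was 100 nL into about 11 µL; a reference agonist was the positive control; negative values mostly stem from fluorescent compounds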
Ecoli growth – inhibitors of Escherichia coli growth. AID 1053175. OD600, 23 h; hits give low values. 330,000 compounds, 0.21% hits. OD600 absorbance (test concentration not listed);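 active = OD600 absorbance below the run mean of sample wells minus 3.6 SD, in any replicate, cut at about 0.56 in these data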;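 note: stock transfer was 300 nL into about 60 µL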
A1 inh – inhibitors of the anti-apoptotic protein A1, read as caspase activation; MEF A1-2A-BIM cells, Caspase-Glo 3/7 luminescence, 3 h; percent of clofoctol response, vehicle zero; caspase activation, % (test concentration not listed); 330,000 compounds, 0.066% hits;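 active = over half of replicate activation scores above 10%, or exactly half above 10 with the replicate mean above 10; inconclusive = replicate mean below 10 yet half the replicates above 10; inactive = over half of replicates below 10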;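 note: wells of about 30 µL received 50 nL stock; many hits fall short of the cut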
LANA-H2B inh – blocks KSHV LANA binding to histone H2A/H2B; Q9QR71; cell-free LANA-H2A/H2B peptide, fluorescence polarization; inhibition, % (test concentration not listed); 320,000 compounds, 0.6% hits; in the data active = inhibition mostly above about 10%, no sharp cut-off; inactive = mostly below about 6.7%;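 note: stock transfer was 7.5 nL into about 10 µL; 0% = median of vehicle wells and 100% = median of positive control wells; one replicate is shown; the record names a cut of 25% in any replicate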
* = called active by the depositor; i = inactive; ? = inconclusive; · = no result given.

SMILES	UCH37 DUB inh	Vif TR-FRET	HNF4A DNA FP	Beta2AR agonist	Ecoli growth	A1 inh	LANA-H2B inh
Cn1c(=O)[nH]c(=O)c2c1nc(N1CCCCC1)n2CCCSc1nnnn1-c1ccccc1	1.3	·	-1.4	-4	0.69	-0.9	-3.1
CCCCN(C(=O)c1ccc2c(c1)OCCO2)c1c(N)n(CC(C)C)c(=O)[nH]c1=O	-0.9	1%	5.0	1	0.7	-0.3	·
C=CCNC(=S)N/N=C/c1ccc(C(F)(F)F)cc1	·	-11%	0.4	0	·	1.4	-4.0
C[C@@]12C(=O)Nc3ccc(Cl)cc3C(=O)N1[C@H]1c3ccccc3OC[C@@H]1[C@@H]2c1ccccc1	-0.1	·	-5.9	17	·	0.2	-2.6
CC1(C)CC(NC(=O)c2ccc(Cl)cc2Cl)CC(C)(C)N1	1.3	·	1.4	0	0.71	0.3	-2.9
Cc1ccc(-n2c(SCC(N)=O)nc3c([nH]c4ccccc43)c2=O)cc1	5.1	75%	1.3	6	0.72	-0.1	1.1
O=C1NC[C@H](Cc2ccccc2)N(CC2CCCCC2)C1=O	1.5	2%	5.5	-3	·	1.6	3.1
O=C(Nc1nccs1)C1(S(=O)(=O)c2ccc(Cl)cc2)CC1	0.0	16%	-0.8	-1	0.69	0.1	0.1
O=C(NC1CCCCC1)C(c1cccnc1)N(CCc1ccccc1)C(=O)Cc1cccs1 (stereo not drawn)	0.8	-8%	-0.2	-15	0.74	-0.2	5.0
CC(C)NC(=O)[C@@H]1C[C@@]1(C)[C@@H](NC(=O)OCc1ccccc1)c1ccccc1	2.6	3%	1.9	-4	·	-0.1	1.9
COc1cccc(NC(=O)CNC(=O)c2ccccc2)c1	2.4	14%	-0.4	0	0.71	0.2	-4.0
Cc1cccc(N2C(=O)CC(Sc3ccccc3C(=O)O)C2=O)c1 (stereo not drawn)	3.0	-3%	-0.9	2	0.66	-1.9	-1.0
COc1ccc(CCNC(=O)CN2CCCc3ccccc32)cc1OC	3.0	91µM*	0.2	1	0.7	-0.5	1.2
CCN1CC(=O)Nc2cc(S(=O)(=O)N3CCOCC3)ccc21	2.3	·	3.6	2	0.67	0.7	3.2
C/C(CC(=O)Nc1cccc2c1CCCC2)=N\NC(=O)c1ccccc1N	·	-7%	0.8	1	·	1.0	-2.0
CCOC(=O)N1CCc2c(sc3c2c(=O)n(Cc2ccccc2)c(=O)n3Cc2ccccc2F)C1	2.1	29%	-0.6	-2	0.8	0.3	2.9
N#CCC(=O)N/N=C/c1c2ccccc2cc2ccccc12	·	9%	-2.4	-1	·	0.6	-0.9
Cc1ccc(CNC(=O)c2ccc(N3CCC4(CC3)CC(c3cccc(Br)c3)=NO4)c(NC(=O)c3ccc(Cl)c([N+](=O)[O-])c3)c2)cc1	-0.6	·	2.7	8	0.73	-0.9	-0.8
Cc1nc(SCC(=O)OCc2ccccc2)c(C#N)c(-c2ccccc2)c1C(=O)Nc1ccccc1	-2.1	-2%	5.9	6	0.79	-0.2	-2.8
Fc1ccccc1N1CCN(Cc2cccnc2)CC1	0.7	-1%	-4.7	-15	0.66	0.8	-1.0
Cn1ncc(Cl)c1C(=O)N1CCN(C23CC4CC(CC(C4)C2)C3)CC1	6.3	·	6.5	-1	0.69	0.0	1.6
CC1=C(CC(=O)c2ccccc2)C(=O)c2ccccc2C1=O	12	7%	0.5	-2	0.61	-0.4	-1.5
N/C(=N\c1nc2ccccc2o1)NC(=O)/C=C/c1ccccc1	3.9	-6%	0.1	-4	0.69	-0.8	-5.0
Cc1ccc(/C=N/NC(=O)c2cccnc2)o1	·	12%	2.2	2	·	0.7	4.2
CCOc1ccc(S(=O)(=O)N2CCC(C(=O)NC3CCCCC3)CC2)cc1	0.7	·	3.0	5	0.68	1.1	-6.5
(more compounds)
SMILES	UCH37 DUB inh	Vif TR-FRET	HNF4A DNA FP	Beta2AR agonist	Ecoli growth	A1 inh	LANA-H2B inh
CCCCCOC(=O)Nc1nnc(CCC)s1	1.5	16%	1.8	1	0.7	-0.2	4.0
COc1ccc(CN2CCN(Cc3ccc(OC)c(OC)c3OC)CC2)cc1	-1.5	-5%	-1.0	-7	0.68	0.6	0.4
CCc1nnc(NC(=O)c2cc(-c3ccncc3)nc3ccccc23)s1	3.2	·	4.5	6	0.66	-0.5	-2.7
COc1ccccc1N(CC(=O)N1CCC(C(N)=O)CC1)S(=O)(=O)c1ccccc1	0.1	-2%	-1.4	12	0.67	-0.5	-5.2
COc1cc(C)c(S(=O)(=O)NCCCn2ccnc2)cc1C	2.7	·	-9.4	-5	0.68	0.0	-1.2
O=C(NC1CCCCC1)C(c1ccncc1)N(C(=O)c1csnn1)c1cccc(F)c1 (stereo not drawn)	-1.4	-1%	1.1	10	0.71	0.5	3.5
Cc1nc(N2CCN(C(=O)c3cnccn3)CC2)c2c3c(sc2n1)CC(C(C)(C)C)CC3 (stereo not drawn)	0.7	-2%	1.7	-1	0.7	-0.1	3.0
CCOC(=O)c1cc(-c2ccc(OC)cc2)nn1-c1ccc(C(=O)O)cc1	1.3	-1%	-6.2	0	0.69	0.6	2.3
Cc1noc(C)c1S(=O)(=O)Nc1ccc2c(c1)C(=O)N([C@H](C)CO)C[C@H](C)[C@@H](CN(C)C(=O)NC(C)C)O2	3.7	8%	-1.5	-4	0.68	·	·
O=C(O)CCNc1nc(C(F)(F)F)nc2ccccc12	0.5	·	-2.9	6	0.69	-0.4	6.9
Cc1cc(C)c(NC(=O)Cn2c(=O)n(Cc3ccco3)c(=O)c3ccccc32)c(C)c1	2.7	22%	-1.8	-5	0.75	0.4	1.7
CCN1CCN(C(=O)CCc2nnc(CCc3ccc(OC)cc3)o2)[C@@H](C)C1=O	-1.1	·	4.2	-1	0.73	1.0	-5.7
O=C(CSc1ccc(F)cc1)N1CCN(S(=O)(=O)c2ccccc2)CC1	5.0	-3%	1.8	-1	0.68	0.2	-3.0
Cc1ccc(CNc2ccc(CNc3ncn[nH]3)cc2)cc1	0.1	0%	-3.6	9	0.69	-0.6	-4.2
Cc1scc(-c2n[nH]c(=S)n2Cc2ccccc2)c1C	4.9	·	-2.4	1	0.66	0.1	-3.6
Cc1nn(Cc2c(F)c(F)c(F)c(F)c2F)c(C)c1NC(=O)c1c([N+](=O)[O-])cnn1C	2.9	-1%	-4.5	-3	0.72	0.7	-1.4
Cc1c(C(=O)NNC(=S)Nc2ccc(S(N)(=O)=O)cc2)oc2ccccc12	18	·	-0.8	4	0.68	-1.8	-1.3
CS/C(N)=N/C(=S)Nc1cccc(Cl)c1	4.3	2%	0.8	5	0.61	-4.7	0.8
COc1ccc(/C=N/NC(=O)CCC(=O)Nc2ccc(Br)cc2)c(OC)c1	·	-1%	0.2	-12	·	1.0	-2.1
C=C1CCN([C@H](C(=O)NCc2ccc(OC)cc2)C(C)C)S(=O)(=O)c2ccccc21	5.8	2%	6.7	0	·	0.2	1.2
CC1CN(Cc2ccccc2)c2ccccc2NC1=S (stereo not drawn)	1.5	1%	-1.7	-11	0.67	0.5	0.3
CN(C)S(=O)(=O)Nc1ccc(Oc2ccccc2)cc1	7.0	19%	0.3	-7	0.66	-0.2	1.4
CCn1cc(C(=O)OC(C)C(=O)Nc2c(C)n(C)n(-c3ccccc3)c2=O)c(=O)c2ccc(C)nc21 (stereo not drawn)	4.4	-7%	-2.4	-11	0.58	·	·
CCn1c(COc2ccccc2C(N)=O)nc2ccccc21	-3.5	26%	1.2	3	0.73	0.1	2.4
Cc1ccnc(NC(=O)CCC(=O)N(CC(=O)NCc2ccc(F)cc2)Cc2ccco2)c1	7.4	·	0.8	-1	0.71	-0.2	2.3

Reprinted at random: 3 records from the list, in no set order.
SMILES	UCH37 DUB inh	Vif TR-FRET	HNF4A DNA FP	Beta2AR agonist	Ecoli growth	A1 inh	LANA-H2B inh
Cc1cc(C)c(NC(=O)Cn2c(=O)n(Cc3ccco3)c(=O)c3ccccc32)c(C)c1	2.7	22%	-1.8	-5	0.75	0.4	1.7
O=C(O)CCNc1nc(C(F)(F)F)nc2ccccc12	0.5	·	-2.9	6	0.69	-0.4	6.9
CC1CN(Cc2ccccc2)c2ccccc2NC1=S (stereo not drawn)	1.5	1%	-1.7	-11	0.67	0.5	0.3

Following part
SMILES	UCH37 DUB inh	Vif TR-FRET	HNF4A DNA FP	Beta2AR agonist	Ecoli growth	A1 inh	LANA-H2B inh
CCOc1ccccc1OCC(=O)Nc1ccccc1C(=O)NC1CC1	1.7	-13%	3.9	-2	0.71	1.4	-4.7
Cc1ccccc1C(=O)Nc1nnc(CC(=O)N/N=C/c2ccco2)s1	·	?	4.2	2	·	0.2	-8.4
CN(CC(=O)Nc1ccc(Cl)c(Cl)c1)C(=O)C12CC3CC(CC(C3)C1)C2	2.9	·	0.5	1	0.72	-0.5	-0.7
CSc1nc(-c2ccccc2)nc2c1COC(C)(C)C2	2.5	-4%	4.2	6	0.75	-0.1	-2.4
O=C(CNC(=O)COc1ccccc1)NCCN1CCOCC1	3.6	·	1.6	-5	0.73	·	·
CC(C)(C)C1CCC(=NNC(=O)c2ccco2)CC1 (stereo not drawn)	3.9	8%	-1.0	-1	0.71	0.1	-4.6
O=c1c2ccccc2c(=O)n(-c2ccccc2)n1-c1ccccc1	1.1	-10%	2.6	2	0.63	·	·
O=C(N/N=C/c1ccc([N+](=O)[O-])s1)c1ccncc1	·	18%	5.5	4	·	-0.2	4.7
CCOC(=O)c1sc(NC(=O)CSc2nnnn2-c2ccccc2)nc1C	4.2	-2%	0.6	-1	0.72	1.1	0.2
CC(C)n1cc(/C=C2/NC(=O)N(c3cccc(Cl)c3)C2=O)c2ccccc21	-6.4	17%	3.0	6	0.8	0.3	0.7
CN(CCCNS(=O)(=O)c1cccc2cccnc12)Cc1ccccc1	4.5	-3%	0.8	-6	0.68	-0.6	-2.4
CC(=O)c1c(Nc2ccccc2)sc(C(=O)c2ccccc2)c1C	1.6	·	0.0	5	·	1.6	-0.2
O=C(N/N=C1/CCSC1)c1cccc([N+](=O)[O-])c1	·	3%	-1.5	-4	·	1.7	2.1
CCOC(=O)c1sc(=NC(=O)c2ccc(Br)cc2)n(C)c1C	-2.8	-45%	4.6	10	0.62	-0.9	-0.3
Cc1cc(C)cc(OCC(=O)NNC(=O)CCC(=O)NCc2ccccc2)c1	0.7	-2%	-0.1	-1	0.71	0.3	-2.4
Cc1ccccc1OCCC(=O)OCC(=O)NNC(=O)c1cccs1	0.3	-1%	-2.1	-1	0.67	0.3	4.3
Cc1cc(C)cc(N(C(=O)c2csnn2)C(C(=O)NC(C)(C)C)c2cccs2)c1 (stereo not drawn)	2.4	-4%	-2.1	0	0.72	0.7	-3.0
O=C1NC2(CCN(Cc3ccccc3)CC2)Oc2ccccc21	3.4	·	0.8	-5	0.69	-0.2	0.0
c1ccc(C(c2nnnn2C2CCCCC2)N2CCc3ccccc3C2)nc1 (stereo not drawn)	-144	-5%	-3.1	-9	0.71	-0.4	8.9
CC(=O)Nc1ccc2c(CN3C(=O)NC(C)(c4ccc(C)cc4)C3=O)cc(=O)oc2c1 (stereo not drawn)	i	2%	6.9	-8	0.68	0.5	9.5
COc1ccc(-c2ccc3nnc(SCC(=O)N4CCCC4)n3n2)cc1	-77	-2%	-0.2	-10	0.7	1.3	-0.9
COc1ccc(C2CC(=O)N3CN(c4ccc(C)c(Cl)c4)CSC3=C2C#N)cc1 (stereo not drawn)	1.5	81µM*	-1.4	-1	0.75	0.8	-1.5
Cc1ccc(-n2ncc3c(NCc4ccco4)ncnc32)c(C)c1	2.9	10%	-1.6	-4	0.71	1.1	-1.6
Cc1ccc(NC(=O)CN2C(=O)S/C(=C/c3ccc(-c4cccc(C(=O)O)c4)o3)C2=O)cc1	-6.1	16%	-7.3	4	0.72	·	·
